# High-throughput results: PubChem, several laboratories
# Mtb hypoxia rep – PubChem AID 1159583; M. tuberculosis hypoxia-regulated fluorescent reporter, fluorescence; fluorescence inhibition, % (test concentration not listed); 0.1% of 300,000 active;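 active means 35 to 45% if threefold the growth effect, above 45% if 1.5-fold the growth effect; inactive means the rest, general growth blockers included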;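 further: wells of about 50 µL received 100 nL stock; 0% = vehicle wells and 100% = reference inhibitor wells; whole bacteria with a GFP reporter of the hypoxia response; strong numbers were not always called active; many hits fall short of the cut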
# Sa ugtP lethal – growth inhibition of ugtP-null S. aureus, primary screen, RN4220 ugtP deletion, OD600; 0.54% of 330,000 active; AID 1259309, 2017; growth inhibition, % (concentration not given with the values); 16 h; some inactives read as strong as hits;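 active means z-score under -3 and OD600 up to 0.15 on both plates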;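 further: plate controls were untreated wells for no effect and antibiotic for full effect; wells of about 80 µL received 100 nL stock; the first replicate is given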
# Sa RN4220 lethal – growth inhibition of S. aureus RN4220, primary screen, OD600; inhibition, % (test concentration not listed); 16 h; AID 1259311, 2017; 0.33% of 330,000 active;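 active means z-score of -3 or lower and OD600 up to 0.18 on both plates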;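 further: plate controls were untreated cells for no effect and reference antibiotic for full effect; stock transfer was 100 nL into about 80 µL; one replicate is shown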
# BJeLR viability – MLPCN primary cell-based screen for lethality selective to Ras in HRASV12 cells; BJeLR (HRASV12) viability, CellTiter-Glo ATP luminescence, 48 h; reference of the scale not given here; inhibition, % (no concentration beside the values); 0.17% of 300,000 active; AID 1554, 2009;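 active means replicate mean above 50%; inconclusive means above 50% but judged a plate artefact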;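 further: 50 nL library stock added to about 25 µL; numbers are from one replicate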
# PrP 5UTR inh – inhibition of PrP 5' UTR reporter expression; AID 488862, 2010; inhibition, % (no concentration beside the values); cell-based PrP 5' UTR mRNA reporter, plate reader; 0.35% of 340,000 active;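 active means every replicate at 50% or more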;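 further: 0 = median of the neutral control wells; tested in H4 reporter cells; numbers are from one replicate; inactives centre near -14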
# Autofluor counter – compound fluorescence in toxin protease inhibitor counterscreen; compound autofluorescence counterscreen, microsphere flow cytometry; stronger effect = higher value; fluorescence intensity (test concentration not listed); 3.1% of 360,000 active;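 active means at least 3 SD above the mean of all compounds, about 16000 in these data; inconclusive means too few beads counted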;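 further: 100 nL of 1 mM stock went into each well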
# Mtb hypoxia rep growth – second read-out of Mtb hypoxia rep, no call of its own (marks repeat the call); growth inhibition, %; measured here: M. tuberculosis growth (absorbance);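 0% = vehicle and 100% = reference antibiotic; read after six days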
# * = called active by the depositor; ? = inconclusive; . = not tested or not shown.
structure	Mtb hypoxia rep	Mtb hypoxia rep growth	Sa ugtP lethal	Sa RN4220 lethal	BJeLR viability	PrP 5UTR inh	Autofluor counter
CC(C)NC(=O)N(C)C[C@@H]1Oc2c(NC(=O)C3CCOCC3)cccc2C(=O)N([C@@H](C)CO)C[C@H]1C	-9	8	0	3.3	.	-17	3958
O=C(CCSc1ccccc1)N1CCN(c2ccccc2F)CC1	-4	9	-3	1.7	5	-29	3695
CC1CN(C(=O)C(C)N2CCN(c3ccccc3Cl)CC2)CC(C)O1 (stereo not given)	-1	1	-1	2.0	2	-7	4245
CN(CC(=O)Nc1ccc2c(c1)OCO2)S(=O)(=O)c1ccc2c(c1)CCC(=O)N2	-8	4	0	1.9	-4	1	3602
O=S(=O)(Nc1ccc(O)c2ccccc12)c1ccc(F)cc1	10	3	12	5.2	-1	-16	5204
O=C(CCCOc1ccc(Br)cc1)NCCc1ccc(OC(F)F)cc1	20	10	-6	1.5	9	-14	3196
CC1(C)CC(=O)c2sc(NS(C)(=O)=O)nc2C1	-2	3	-2	2.5	7	.	13062
COc1ccc(-c2oc3cccnc3c2C#CC2(O)CCCCC2)cc1	.	.	.	.	-15	2	3068
COc1ccc(C(=O)NN2C(=S)N(c3ccc(OC)cc3)C(=O)C2CC(N)=O)cc1 (stereo not given)	-5	5	7	-0.3	-2	-23	?
CCOC(=O)NC(CC(=O)O)c1ccc(OCC)cc1 (stereo not given)	3	2	8	2.7	-4	-8	15792
O=C(COc1ccc(F)cc1)NN=Cc1cccc2cccnc12	2	-3	-5	-2.1	.	.	.
CC=C1COC(C(=O)NCc2ccccc2)(C(F)(F)F)C=C1C=C(C)C (stereo not given)	13	4	5	2.0	.	.	.
CC1C2(C)OC(=N)C(C#N)(C(C)O2)C1(C#N)C#N (stereo not given)	-3	9	-9	1.2	-1	-38	5681
CC(=O)c1cccc(NC(=O)N2CCN(S(C)(=O)=O)CC2)c1	4	-1	5	-1.2	-2	-22	9899
C/C(=N\NC(=O)c1cc(-c2cccnc2)nc2ccccc12)c1ccc(O)cc1O	.	.	.	.	22	32	7322
COC(=O)c1cnn(-c2ccccc2)c1-n1cccc1C=O	-8	-12	5	1.7	12	-4	3639
COc1ccccc1C(=O)C1CCCN(Cc2cccc3nccnc23)C1 (stereo not given)	15	7	3	0.9	-19	-7	4349
CCOc1cc2[nH]c(=O)n(CCCCCC(=O)NCc3ccco3)c(=O)c2cc1OCC	-1	3	9	6.7	-3	0	.
O=C(CSc1cccc(C(F)(F)F)c1)NC(=O)c1ccccc1	3	-9	1	1.6	12	-4	1890
CN(C)c1ccc([P+](=O)c2ccc(N(C)C)cc2)cc1	0	5	-2	4.2	1	-28	4172
CSc1ccc(CNCC2CCCO2)cc1 (stereo not given)	-15	-3	-5	-4.1	-3	-14	4414
CC1CCCN(c2c([N+](=O)[O-])cc(C(=O)O)cc2[N+](=O)[O-])C1 (stereo not given)	16	11	11	13	-8	-22	4201
C=C(C)c1cccc(C(C)(C)NC(=O)NCCCn2ccnc2)c1	17	9	-1	1.9	0	0	7616
O=C(CSc1nnc(-c2cccc(Br)c2)o1)N1CCOCC1	.	.	-3	1.2	-1	-11	?
c1ccc(-c2cc3ccccc3nc2N2CCCC2)cc1	.	.	85*	-0.3	-3	-18	2492

# Entries of single compounds, looked up by structure:
# O=C(CCCOc1ccc(Br)cc1)NCCc1ccc(OC(F)F)cc1 as listed: Mtb hypoxia rep: 20; Mtb hypoxia rep growth: 10; Sa ugtP lethal: -6; Sa RN4220 lethal: 1.5; BJeLR viability: 9; PrP 5UTR inh: -14; Autofluor counter: 3196
# CC1(C)CC(=O)c2sc(NS(C)(=O)=O)nc2C1 as listed: Mtb hypoxia rep: -2; Mtb hypoxia rep growth: 3; Sa ugtP lethal: -2; Sa RN4220 lethal: 2.5; BJeLR viability: 7; PrP 5UTR inh: .; Autofluor counter: 13062

# Further records:
structure	Mtb hypoxia rep	Mtb hypoxia rep growth	Sa ugtP lethal	Sa RN4220 lethal	BJeLR viability	PrP 5UTR inh	Autofluor counter
O=C(Nc1ccc(C(=O)NC2CCCCC2)cc1)c1cncc(Br)c1	.	.	.	.	2	-37	5496
COCCN1C(=O)N[C@@H](CCc2ccccc2)[C@@H](C(=O)OC)[C@H]1C	.	.	.	.	-5	-8	4144
CC(C)Oc1ccc(C(=O)OCC(=O)N2CCCc3ccccc32)cc1	-3	2	5	0.3	3	-13	?
COc1cc(CCCN2C(=O)C(=O)NC[C@@H]2Cc2ccc(O)cc2)cc(OC)c1OC	.	.	.	.	-2	-18	2881
O=C(OCc1ccc(Br)cc1)c1cccnc1	13	2	5	4.8	-2	-11	3375
O=C(COc1ccc2c(c1)CCC2)NCc1ccccc1	10	1	6	4.9	-2	-5	7195
CCCc1cc(=O)n2[nH]c(-c3ccccc3)cc2n1	.	.	-14	4.8	-4	-36	4814
O=[N+]([O-])c1cccc(S(=O)(=O)NN=Cc2ccc(O)cc2)c1	9	8	7	4.3	.	.	.
CC(=O)Nc1cc(OC(=O)c2ccco2)cc(OC(=O)c2ccco2)c1	.	.	-2	4.9	-6	18	2678
CCOc1ccc(OCCNC2CCCC2)cc1	-10	1	5	3.5	6	-6	22478*
Cc1nonc1C1CCCN1C(=O)c1cc(COc2ccc(F)cc2Cl)on1 (stereo not given)	13	8	0	5.1	2	-18	2014
Cc1ccccc1C(=O)N1CCC(C(=O)N2CCN(Cc3ccc4c(c3)OCO4)CC2)CC1	3	1	10	5.7	.	1	3650
CC(=O)c1ccc(OC(C)C)c(Cc2c(O)[nH]c(=S)[nH]c2=O)c1	3	4	-5	6.2	9	-24	4283
CC(C)C(NC(=O)c1c(F)cccc1F)C(=O)NNC(=O)c1ccccc1 (stereo not given)	8	7	8	3.8	.	-3	.
O=C(NCC(=O)N(c1cccnc1)C(C(=O)NC1CCCC1)c1ccco1)c1cccs1 (stereo not given)	.	.	1	1.6	2	-12	3051
O=C(Nc1c(C(=O)N2CCCCC2)cnn1-c1ccccc1)c1ccccc1F	-3	-1	6	-1.0	2	-9	6055
COc1cc(-c2nnc(Sc3ccc(C(F)(F)F)cc3[N+](=O)[O-])o2)cc(OC)c1OC	1	-2	4	1.2	-4	-1	9772
CC(C)NC(=O)CSc1nccc(-c2cccs2)n1	3	4	-2	-0.8	-3	-4	4462
CN(C)S(=O)(=O)Oc1ccsc1C(=O)Nc1ccc(Br)cc1	6	10	5	-5.1	1	-9	1996
CCc1ccc(NC(=O)C2CCN(S(C)(=O)=O)CC2)cc1	14	7	0	0.4	15	-16	11318
CN(C)c1ccc(CNC(=O)C2CCN(S(=O)(=O)c3ccc4c(c3)oc(=O)n4C)CC2)cc1	2	-7	2	0.9	7	-16	5037
Oc1ccc(C=NNc2nc(N3CCCCCC3)nc(N3CCCCCC3)n2)c(O)c1	4	-3	79	27	.	.	.
O=C(O)CCc1ccc(-c2cccs2)n1CC(=O)Nc1ccccc1C(F)(F)F	3	0	-2	6.7	6	-10	4083
CC(NC(=O)C(=O)N1CCCCC1)C(c1cccs1)N1CCN(Cc2ccccc2)CC1 (stereo not given)	11	5	18	2.3	7	-20	4718
O=[N+]([O-])c1ccc(N2CCN(S(=O)(=O)c3ccc(Cl)cc3)CC2)cc1NCC1CCCO1 (stereo not given)	1	1	6	4.0	-7	-30	16643*

# Brought forward from above: 2 entries; new compounds follow.
structure	Mtb hypoxia rep	Mtb hypoxia rep growth	Sa ugtP lethal	Sa RN4220 lethal	BJeLR viability	PrP 5UTR inh	Autofluor counter
CC(NC(=O)C(=O)N1CCCCC1)C(c1cccs1)N1CCN(Cc2ccccc2)CC1 (stereo not given)	11	5	18	2.3	7	-20	4718
O=[N+]([O-])c1ccc(N2CCN(S(=O)(=O)c3ccc(Cl)cc3)CC2)cc1NCC1CCCO1 (stereo not given)	1	1	6	4.0	-7	-30	16643*
Cc1ccccc1-c1nc2cc(NC(=O)C3CC3)ccc2o1	1	11	-4	3.4	1	-79	3204
C=C(C)CN(CC)C(=O)CC1C(=O)NCCN1C (stereo not given)	7	-3	12	4.3	6	-12	4635
O=C(COc1ccccc1)Nc1c(Cl)ccc2nsnc12	3	1	7	5.8	-9	-6	3860
Cc1cc(N2CCN(c3ccccc3)CC2)n2nnnc2n1	.	.	.	.	1	0	2712
Cc1ccc(S(=O)(=O)NCCSc2nncn2C)cc1	5	11	9	4.6	-1	-12	5515
Clc1ccc(C2=Nc3cc(Cl)ccc3OC2)cc1	7	10	5	9.4	1	-69	4088
CC(=O)c1c(C)n(-c2ccccc2Br)c2ccc(O)cc12	-2	-2	-6	1.2	15	7	3868
NC(=S)N/N=C1\CC(n2nnnc2-c2ccccc2Cl)C2COC1O2 (stereo not given)	.	.	.	.	-12	-20	3909
CCOC(=O)CN1NC2(CCCCCCC2)NC1=S	-13	-3	10	8.3	-1	-15	6076
CCN1C(=O)N(C)C(N(O)C(=O)NC)C1(C)C (stereo not given)	.	.	-6	1.0	-3	-3	2693
CCOC(=O)CCCCCC(=O)Nc1ccc2c(c1)CC(=O)N(C(C)CO)CC(C)C(CN(C)C(=O)Nc1ccc3c(c1)OCO3)O2 (stereo not given)	12	3	2	7.7	.	.	.
COc1ccc(NS(=O)(=O)c2cccc(C(=O)NNC(=O)CNC(=O)c3ccco3)c2)cc1	2	5	11	1.9	1	2	5797
O=C(/C=C/c1cccc([N+](=O)[O-])c1)NCc1cccnc1	-2	-1	16	3.4	9	-12	2862
COc1ccc(/C=N/NC(=O)c2sc(C)nc2C)cc1	.	.	.	.	3	-32	4996
CCCCCc1c(O)nc(SCCN2CCOCC2)[nH]c1=O	2	-2	3	2.4	8	-19	4171
Cc1cc(C(=O)O)ccc1N/C=C1\CCCC(C)C1=O (stereo not given)	.	.	.	.	7	-52	3481
O=C(C1CCCN(S(=O)(=O)c2cccs2)C1)N1CCN(C2CCCCC2)CC1 (stereo not given)	.	.	-10	1.1	1	-16	3537
COc1cccc(CN(C)C(=O)CN2C(=O)NC3(CCCc4ccccc43)C2=O)c1 (stereo not given)	1	-4	7	4.2	.	-2	3294
COC(=O)[C@]1(C)CCC[C@@]2(C)C3CC[C@@]4(C)C[C@]3(CCC21)CC(=O)N4 (stereo not given in full)	-3	3	14	16	.	-10	2975
CCN1CCN(c2ccc(S(=O)(=O)N3CCOCC3)cc2NC(=O)c2ccc(C)c(C)c2)CC1	-11	5	-3	1.6	-4	0	5940
COC(=O)c1c(NC(=O)C(=O)NCCCN2CCOCC2)sc2c1CCCC2	10	1	4	1.1	-13	-23	4155
N#C/C(=C1/CCCN1)c1ccccn1	12	10	-1	6.8	-15	.	10279
CSCCC(NS(=O)(=O)c1ccc(C)cc1)C(=O)N(C)CC(=O)Nc1ccccc1Br (stereo not given)	-8	2	1	2.6	.	0	5768
CC(C)C(=O)N(c1ccc2oc(=O)sc2c1)S(=O)(=O)c1ccccc1	6	4	-1	-3.4	-3	3	15678
COC(=O)c1ccc(OC(=O)CS(=O)c2ccccc2[N+](=O)[O-])cc1 (stereo not given)	15	8	3	4.2	2	-10	4168
COc1cc([N+](=O)[O-])ccc1NC(=O)CN1CCN(C(=O)c2ccco2)CC1	-2	-5	17	7.8	-6	-9	3275
CCC(C)c1ccc(NC(=O)NCCN2CCCCC2)cc1 (stereo not given)	2	11	4	2.7	-1	-18	4150
C=CC[C@H](CC(=O)NCCO)C(=O)N[C@@H](COC(=O)[C@H](CC=C)CC(=O)OC(C)(C)C)Cc1ccccc1	-9	1	-4	-1.7	.	-19	3388
Cc1cc(C)cc(C(=O)NCCC(=O)NCc2cc(=O)n(C)c(=O)n2C)c1	7	8	5	0.3	-3	-9	5598
O=C(NCCc1c[nH]c2ccccc12)/C(=C/c1ccco1)NC(=O)c1ccco1	4	0	0	-0.9	-3	-11	4678
O=C1C=C(O)CC(c2cccs2)C1 (stereo not given)	11	3	8	4.4	.	-3	8393
O=C(Nc1ccccc1C(=O)NN=Cc1ccccc1)c1ccco1	8	8	10	6.0	.	.	.
CCn1cc(S(=O)(=O)NC2CCCCC2)cn1	2	0	0	-1.1	4	-22	6587
CCc1n[nH]c2c1C(=O)CC(C)(C)C2	.	.	1	1.6	-1	-4	2757
